# High-throughput results as filed in PubChem BioAssay.
# HIV Env fusion: inhibitors of HIV Env-mediated cell fusion; inhibition, % at 12.3 µM; HeLa-JRFL Env/CEM21 cell fusion, luciferase; hit rate 1.1% among 360,000;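 active means mean replicate inhibition score of at least 50 and every replicate individually at or above 50; inconclusive means only one of the two criteria met; inactive means mean below 50 and not all replicates reaching 50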;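 further: 0% = plate neutral controls and 100% = maraviroc near 300 nM; one replicate is shown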
# UUG fidelity: modulators of start codon recognition fidelity in yeast; S. cerevisiae UUG-firefly luciferase reporter, luminescence/redox ratio; activity score, % at 18.7 µM; hit rate 0.13% among 350,000;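 active means replicate mean at a twofold rise or more, about +100% in these data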;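 further: firefly luciferase made from a UUG start codon reports start codon fidelity; reporter light over untreated wells divided by growth signal over untreated wells; some hits fall short of that in this replicate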
# MT1-MMP act inh: inhibitors of human MT1-MMP activation; GFP/RFP ratio change, % at 20 µM; HT1080 RFP-PRO-GFP cells, GFP/RFP ratio fluorescence, overnight; percent of plate control window, DMSO zero; P50281; hit rate 0.061% among 360,000;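 active means GFP/RFP ratio change of at least 30% with cell ATP level not reduced by more than half and red fluorescence within 50% of control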; further: strong numbers were not always called active
#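 Assay system: RFP-PRO-GFP reporter HT1080 cells; read-out basis: GFP/RFP fluorescence ratio; benchmarks: DMSO wells and RFP-L50D-GFP cells; doses: 20 µM single dose, 1% DMSO; schedule: overnight cell settling, then overnight compound exposure, 37 °C, 5% CO2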
# CSC inhib: cancer stem cell inhibition | cancer stem cell-like cells viability, luminescence | inhibition, % at 7.5 µM | hit rate 1.1% among 300,000;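 active means mean at 75% or more and at least half the replicates too; inconclusive means mean and replicates disagree; tested in HMLE shEcad cells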;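 further: 0% = median of negative and 100% = median of positive control wells; the first replicate is given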
# Rce1 inhib: yeast Ras-converting enzyme inhibition | Q03530 | yeast membranes, quenched prenylated peptide cleavage fluorescence | calls only | hit rate 0.27% among 290,000 | AID 2563;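 active means fall in fluorescence gain of 50% or more versus controls, with final raw signal at or below 3038400; inconclusive means same 50% fall but final raw signal above 3038400; inactive means fall in fluorescence gain under 50%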;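 further: plate controls were neutral control wells for no effect and wells lacking membranes for full effect; tested at 10 µM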
# Target sequence (Q03530 whole entry, looked up): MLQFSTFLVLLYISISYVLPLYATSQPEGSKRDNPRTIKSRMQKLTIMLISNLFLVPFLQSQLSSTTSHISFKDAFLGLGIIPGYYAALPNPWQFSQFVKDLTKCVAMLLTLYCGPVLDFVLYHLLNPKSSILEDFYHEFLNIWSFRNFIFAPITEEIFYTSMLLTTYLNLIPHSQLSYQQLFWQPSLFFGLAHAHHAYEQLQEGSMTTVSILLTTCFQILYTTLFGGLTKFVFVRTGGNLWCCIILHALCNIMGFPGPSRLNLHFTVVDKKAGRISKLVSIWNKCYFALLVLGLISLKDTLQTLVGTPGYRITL
# PABP FP inh: blocks human PABP binding to poly(A) RNA; inhibition, % at 35 µM; P11940; hit rate 1% among 290,000; fluorescence polarization;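 active means 50% or more with normal probe brightness, or confirmed in later tests; inconclusive means above 50% with abnormal brightness, or retests that disagree; inactive means below 50% or failed in later tests; about a fifth of its hits are not listed in these tables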;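 further: calls also rest on retests at 20 µM and on dose response follow-up; controls were probe without protein and protein plus probe with vehicle; some compounds called inactive have numbers as strong as hits; many hits fall short of the cut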
# eIF4H FP inh: inhibitors of RNA binding by human eIF4H. Q15056. eIF4H fluorescence polarization binding assay. inhibition, % at 35 µM. hit rate 0.94% among 290,000;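 active means 50% or more with normal probe brightness, or confirmed in later tests; inconclusive means above 50% with abnormal brightness, or retests that disagree; inactive means below 50% or failed in later tests; about a fifth of its hits are not listed in these tables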;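 further: calls also rest on retests at 20 µM and on dose response follow-up; 0% = protein and probe with vehicle and 100% = probe without protein; strong numbers were not always called active; many hits fall short of the cut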
# eIF4H FP inh retest: also measured in eIF4H FP inh; calls as there; inhibition, %; compound at 20 µM; confirmation average;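 mean of two retest wells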
# PABP FP inh retest: recorded beside PABP FP inh, whose call it bears; inhibition, %; compound at 20 µM; confirmation repeats;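 mean of two retest wells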
# MT1-MMP act inh RFP: also measured in MT1-MMP act inh; calls as there; RFP signal change, %; measured here: RFP expression control read;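 0 = vehicle wells; hits needed this value within 50% of zero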
# * = called active by the depositor; i = inactive; ? = inconclusive; . = no result given; + = active, no number. This is a subset (hit frequency here may not be typical).
SMILES,HIV Env fusion,UUG fidelity,MT1-MMP act inh,MT1-MMP act inh RFP,CSC inhib,Rce1 inhib,PABP FP inh,eIF4H FP inh,others
CCOc1ccc2ccccc2c1/C=N/NC(=O)CNC(=O)Cc1ccccc1,-10,.,4,-2,-11,i,-7,-6,
CC(NC(=O)c1ccccc1)C(c1cccs1)N1CCOCC1 (stereo unspecified),4,-9,3,5,-20,i,-14,18,
Cc1ccccc1-c1nnn(CC(=O)Nc2ccc3c(c2)OCCO3)n1,13,.,4,2,12,i,-5,-7,
CCN(CC)c1ccc(/C=N/NC(=O)c2ccc3nc[nH]c3c2)cc1,17,-6,-4,-2,4,i,-4,-3,
COc1cc(C2C3=C(Nc4ncnn42)c2ccccc2CC3)cc(OC)c1OC (stereo unspecified),55,-19,11,-8,2,i,4,-3,
CC1CCCCC12NC(=O)N(CC(=O)N1CCN(Cc3ccc(C#N)cc3)CC1)C2=O (stereo unspecified),46,-5,0,-23,.,.,.,.,
Cc1ccc(OCC(=O)Nc2ccc3c(c2)nc(CCN2CCN(c4ccccn4)CC2)n3C)cc1,61*,-10,1,-17,.,.,.,.,
CC1(C)Cc2ccccc2-c2nc(NN)[nH]c(=O)c21,4,-7,3,-1,12,i,5,-6,
CC(C)COc1ccc(-c2nn(-c3ccccc3)cc2/C=C2/SC(=S)N(CC(=O)O)C2=O)cc1,8,-5,-2,-3,+,i,12,93*,eIF4H FP inh retest=77*;PABP FP inh retest=17
COC(=O)[C@@]1(Cc2ccc(F)cc2)[C@H]2c3cc(C(=O)N(C)C)n(Cc4ccc(OC)c(OC)c4)c3C[C@H]2CN1C(=O)c1ccccc1,-40,.,.,.,-12,i,4,-2,
CCOc1ccc(S(=O)(=O)NCCC(=O)NCCc2ccc(C(C)C)cc2)cc1,11,.,-3,-12,-7,i,.,.,
O=C(NCc1ccc(Cl)cc1)N1CCc2ccccc2C1,-20,-8,4,3,4,.,3,-3,
O=C(NCc1ccco1)C(c1cccnc1)N(C(=O)Cn1nnc2ccccc21)c1ccccc1 (stereo unspecified),.,-19,-3,0,-1,i,-2,-12,
Fc1ccccc1/C=N/Nc1nc(-c2ccccn2)nc2ccccc12,.,.,.,.,37,i,10,6,
Cc1nc2nc[nH]n2c(=O)c1NS(=O)(=O)c1ccc(F)cc1,-14,.,-3,1,-7,i,-2,7,
Cc1ccc(CNc2cc(-c3nn4c(C)nnc4s3)ccc2C)s1,21,-19,-2,-4,.,i,15,1,
COC(=O)C1=C(C)N=C2SCCC(=O)N2C1c1ccc(C(=O)OC)cc1 (stereo unspecified),9,-9,6,1,.,i,-9,9,
Clc1cccc(CSc2nnc(-c3sccc3-n3cccc3)o2)c1,.,-26,0,-10,24,i,-6,-1,
O=C(CSc1nc2cccnc2n1Cc1ccccc1)NC1CCCCC1,-18,-4,-9,-3,-3,i,8,2,
Cc1ccccc1C(=O)Nc1ccccc1C(=O)N/N=C\c1ccco1,2,-18,-2,1,-19,i,5,-3,
O=c1c(Cl)c(N2CCN(S(=O)(=O)c3ccc(F)cc3)CC2)cnn1-c1cccc(Cl)c1,8,-14,-2,-11,-15,i,-8,2,
Cn1c(Cc2cccs2)nnc1SCC(=O)Nc1ccccc1,2,-30,-2,3,-10,i,-3,-10,
CN(C)S(=O)(=O)c1ccc(NC(=S)NC(=O)C2CCC2)cc1,-22,-16,-3,-1,-7,i,2,-10,
CC(C)(C)OC(=O)N1Cc2cc3ccccc3nc2C1,-50,-40,0,-3,.,.,.,.,
COc1ccccc1C(=O)COC(=O)CSC(C)C(=O)Nc1cc(C)on1 (stereo unspecified),-39,-19,0,3,-17,i,.,.,
COc1ccc(N(CC(=O)NC2CCCCC2)C(=O)CNC(=O)c2cccs2)cc1OC,18,-7,1,5,-10,i,5,-8,
Cn1c(SCC(=O)Nc2ccc(F)cc2)nnc1-c1cccnc1,3,-14,1,6,5,i,-7,-10,
Cc1cc(S(=O)(=O)NCc2cccnc2)ccc1F,6,-16,-2,2,-5,.,0,-6,
COc1ccc(N2C(=O)C(C)C(Cc3ccc(C)cc3)C2=O)cc1 (stereo unspecified),-10,-6,3,-4,-22,i,3,-6,
COc1ccccc1CCC(=O)Nc1ccc2c(c1)CN(Cc1ccc(CO)o1)CC2,-6,5,-3,1,-6,i,5,24,
COc1cccc(OCc2cc(C(=O)N3CCN(C(C)=O)CC3)no2)c1,-49,-7,2,-2,16,i,9,-3,
Cc1ccc(CNC(=O)CS(=O)(=O)Cc2nc(-c3ccc(C)cc3)oc2C)cc1,8,4,-1,-5,-2,i,-13,-9,
O=C(NCC1OCCc2ccccc21)c1ccc(NC(=O)c2ccc(Cl)cc2)cc1 (stereo unspecified),?,-6,-8,-16,-11,i,-18,-2,
Cc1nnc(SCC(=O)NNC(=O)c2ccco2)n1-c1ccccc1,1,-19,-1,2,-6,i,7,5,
COc1ccc(C2C(C(N)=O)=C(C)Nc3nc(-c4ccccc4Cl)nn32)c(OC)c1 (stereo unspecified),7,-13,7,5,-2,i,-10,-8,
CC(/C=C/c1ccccc1)=N/NC(=O)c1cc([N+](=O)[O-])cc([N+](=O)[O-])c1,23,-5,-1,-2,20,.,-6,11,
Cn1c(CNc2ccccn2)c(C#N)c2ccccc21,4,-4,3,2,-1,i,7,-3,
COc1cc(OC)c(NC(=O)CCc2ccccc2)cc1Cl,-83,-9,1,-3,.,i,-3,-6,
COc1ccc2c(c1OC)C(=O)OC2Nc1nc(-c2ccc(-c3ccccc3)cc2)cs1 (stereo unspecified),-179,-9,-11,-12,36,i,-2,-2,
S=C(c1ccccc1)N1CCCC1,5,-13,0,1,-8,i,4,-1,

# Arranged by count of non-hydrogen atoms (low to high): some entries from above.
SMILES,HIV Env fusion,UUG fidelity,MT1-MMP act inh,MT1-MMP act inh RFP,CSC inhib,Rce1 inhib,PABP FP inh,eIF4H FP inh,others
Cn1c(Cc2cccs2)nnc1SCC(=O)Nc1ccccc1,2,-30,-2,3,-10,i,-3,-10,
Cc1ccc(CNC(=O)CS(=O)(=O)Cc2nc(-c3ccc(C)cc3)oc2C)cc1,8,4,-1,-5,-2,i,-13,-9,
O=C(NCC1OCCc2ccccc21)c1ccc(NC(=O)c2ccc(Cl)cc2)cc1 (stereo unspecified),?,-6,-8,-16,-11,i,-18,-2,

# Back to the main list with the 4 entries that preceded the break.
SMILES,HIV Env fusion,UUG fidelity,MT1-MMP act inh,MT1-MMP act inh RFP,CSC inhib,Rce1 inhib,PABP FP inh,eIF4H FP inh,others
Cn1c(CNc2ccccn2)c(C#N)c2ccccc21,4,-4,3,2,-1,i,7,-3,
COc1cc(OC)c(NC(=O)CCc2ccccc2)cc1Cl,-83,-9,1,-3,.,i,-3,-6,
COc1ccc2c(c1OC)C(=O)OC2Nc1nc(-c2ccc(-c3ccccc3)cc2)cs1 (stereo unspecified),-179,-9,-11,-12,36,i,-2,-2,
S=C(c1ccccc1)N1CCCC1,5,-13,0,1,-8,i,4,-1,
C[n+]1c2n(c3ccccc31)N=C(c1ccc(Br)cc1)CS2,32,-2,0,-12,18,i,4,-4,
CCOC(=O)N1CCN(C(=O)c2cn(C)c3ccc(S(=O)(=O)N4CCC(C)CC4)cc3c2=O)CC1,9,21,3,1,-7,i,-34,-14,
COC(=O)c1c(C)[nH]c(C(=O)COC(=O)Cc2ccc3c(c2)OCCO3)c1C,-173,-7,1,-4,-2,i,-9,10,
Cc1ccc(C(=O)N2C3C=CC(C3)C2(C(F)(F)F)C(F)(F)F)cc1 (stereo unspecified),.,-3,1,0,-10,i,-3,-14,
O=C(Nc1ccsc1C(=O)O)c1ccccc1,-2,-6,2,2,-12,i,22,-5,
O=S(=O)(Nc1ccc(F)cc1Cl)c1ccc(-c2cnc(C3CC3)o2)cc1,-208,-6,-1,-17,.,i,8,7,
O=C(NC1CCCC1)C1CCN(C(=O)c2cc(Cl)ccc2Cl)CC1,-6,-2,1,2,-13,.,1,1,
Cc1cc(C(=O)CN2CCCCC2)c(C)n1-c1ccc(F)cc1,-9,.,-2,3,-7,i,-2,-5,
O=C(CN1CCN(Cc2ccccc2)CC1)NC(c1ccccc1)c1ccccc1,3,-8,6,0,0,i,4,2,
Cc1ccc(Nc2nc(NCC3CC3)nc3ccsc23)c(C)c1,-151,-11,-1,-16,.,.,.,.,
O=C(NCCN1CCOCC1)c1ccccc1[N+](=O)[O-],.,-7,-5,-13,-11,i,1,3,
COc1ccccc1N/C=C/C(=C(C#N)C#N)N(C)C,4,-11,1,6,-1,.,-1,-3,
COc1cc(NC(=O)C2C3C=CC(C3)C2C(=O)O)ccc1NC(=O)c1ccccc1 (stereo unspecified),-25,1,2,1,-4,i,7,-5,
O=[N+]([O-])c1ccc(C(O)CN2CCN(c3ccccc3)CC2)cc1 (stereo unspecified),-19,-8,3,4,-5,i,11,-6,
CCn1c(Cc2ccc(OC)cc2)nnc1SCC(=O)NC1CC1,-8,-22,-4,1,3,i,7,-10,
O=C(Nc1nnc(CCc2ccccc2)s1)c1ccc(F)cc1,-91,-12,0,-3,-9,i,3,-6,
CCc1ccc2c(c1)CCCN2C(=O)c1ccccc1C(=O)O,29,39,-16,-5,.,i,24,22,
Cc1ccc(CC(=O)NCC2CCCCC2)cc1,.,-10,-2,-3,-1,i,1,-11,
O=C(CCc1nnc(CCC2CCCCC2)o1)NCCc1ccccn1,13,.,-5,-1,2,i,-6,-12,
O=C(O)C1C2C=CC(C2)C1C(=O)Nc1ccc(C(=O)N2CCCCC2)c(Cl)c1 (stereo unspecified),.,3,-9,3,15,i,-2,-8,
CCOC(=O)N1CCC(NC(=O)c2ccc3c(c2)sc2nc(-c4ccc(OC)cc4)cn23)CC1,.,.,.,.,-16,i,3,-5,
O=C(CCN1C(=O)c2ccccc2S1(=O)=O)N1CCN(c2ccccc2)CC1,.,0,3,4,-10,i,5,5,
COc1cccc(-c2nnc(SCN3C(=O)c4ccccc4C3=O)n2C)c1,.,-1,9,-2,-19,i,8,4,
COc1ccc(NC(=O)c2nn(C)c(=O)c3ccccc23)cc1S(=O)(=O)Nc1ccccc1Cl,23,.,10,4,-7,i,-8,0,
CC1=C(C(=O)OC(C)C)C(c2c(O)ccc3ccccc23)NC(=O)N1 (stereo unspecified),-1,-6,4,4,-12,i,-8,-1,
COc1ccc(-c2csc(C)n2)cc1,-113,-17,-3,1,4,i,2,2,
COc1ccc(C(=O)NCc2cn3c(C)csc3n2)cc1OC,.,-22,2,5,-6,i,4,4,
COC(=O)c1cn(Cc2c(C)cc(C)cc2C)nn1,29,.,-1,5,-2,i,-4,10,
